# gsp antagonist: antagonists of gsp mutant (McCune-Albright syndrome) | gsp-mutant cells, cAMP HTRF, 30 min; control for the full effect not named in the record | Potency, µM (series often up to 76.9 µM), for inactives: top-dose activity change, negative = inhibition, most hits filed as inhibitors | 340,000 tested, 0.4% active; active = falling curve of any shape with a large fitted effect; inconclusive = falling curve, mostly with a smaller effect; inactive = flat or rising curve; cell line not stated here;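 also: intracellular cAMP measured with PDE inhibitor Ro 20-1724 present during compound exposure; potency is read from the fitted curve at half-maximal effect; % is scaled to controls: 0 for no effect and ±100 for the full control effect; nearly all actives have a fitted effect of over 65% in size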
#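 Cells, 2000/well, grown 16–24 h in DMEM 10% FBS with 0.5 mg/ml G418, then compounds plus […] (300 uM addition stock), 30 min at 37C. cAMP read by HTRF (cAMP-d2 and anti-cAMP antibody-K in lysis buffer) after 30 min RT.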
# CtBP-E1A blk: blocks the CtBP interaction with E1A. AlphaScreen GST-E1A/His-CtBP binding, 1536-well; active compounds read low; control for the full effect not named in the record. activity change, % (no concentration beside the values). 340,000 tested, 0.49% active. AID 651724; in the data active means activity change below about -65%; inconclusive means about -30% to -65%; inactive means above about -30%; also: % is scaled to controls: 0 for no effect and ±100 for the full control effect
#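 Homogeneous bead-based format: GST-tagged E1A captured on glutathione donor beads, His-tagged CtBP on nickel acceptor beads; compounds precede bead addition by 2 h at 37 °C.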
# Sfp PPTase inh: Sfp phosphopantetheinyl transferase inhibition | Biochemical Sfp PPTase activity, qHTS | Potency, µM, without a hit: max response, negative = inhibition, hits mostly inhibitors | AID 1490 | 310,000 tested, 3.5% active | Q9F4F7; active = well fitted inhibition curve with a large enough effect; inconclusive = small, poorly fitted or top-dose-only effect, or another doubt; inactive = no such curve, though single readings can be large or run the other way;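 also: the enzyme is Sfp with the accession as filed and its product quenches rhodamine fluorescence; potency is read from the fitted curve at half-maximal effect; 0% = enzyme reaction without inhibitor and -100% = no enzyme wells; top concentration of the series not given in the record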
#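 With Hepes-Na pH 7.6 buffer containing 10 mM MgCl2, Sfp (15 nM) modified BHQ-2-YbbR (12.5 uM) using rhodamine-CoA (5 uM). Two reads 30 minutes apart at 525/598 nm yielded each well's rate.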
# TRPV1 potentiator: enhances activation of the human vanilloid receptor TRPV1; potentiation, % at 8.33 µM; Q8NER1; 320,000 tested, 0.02% active; TRPV1-expressing cells, Fluo-8 calcium influx, capsaicin EC20 potentiation; host cell line not named in the record; control for the full effect not named in the record; AID 540277; active means potentiation above 80%; inconclusive means 30% to 80%; inactive means below 30%; also: 0% is about no effect
# Target sequence (Q8NER1 whole entry, looked up): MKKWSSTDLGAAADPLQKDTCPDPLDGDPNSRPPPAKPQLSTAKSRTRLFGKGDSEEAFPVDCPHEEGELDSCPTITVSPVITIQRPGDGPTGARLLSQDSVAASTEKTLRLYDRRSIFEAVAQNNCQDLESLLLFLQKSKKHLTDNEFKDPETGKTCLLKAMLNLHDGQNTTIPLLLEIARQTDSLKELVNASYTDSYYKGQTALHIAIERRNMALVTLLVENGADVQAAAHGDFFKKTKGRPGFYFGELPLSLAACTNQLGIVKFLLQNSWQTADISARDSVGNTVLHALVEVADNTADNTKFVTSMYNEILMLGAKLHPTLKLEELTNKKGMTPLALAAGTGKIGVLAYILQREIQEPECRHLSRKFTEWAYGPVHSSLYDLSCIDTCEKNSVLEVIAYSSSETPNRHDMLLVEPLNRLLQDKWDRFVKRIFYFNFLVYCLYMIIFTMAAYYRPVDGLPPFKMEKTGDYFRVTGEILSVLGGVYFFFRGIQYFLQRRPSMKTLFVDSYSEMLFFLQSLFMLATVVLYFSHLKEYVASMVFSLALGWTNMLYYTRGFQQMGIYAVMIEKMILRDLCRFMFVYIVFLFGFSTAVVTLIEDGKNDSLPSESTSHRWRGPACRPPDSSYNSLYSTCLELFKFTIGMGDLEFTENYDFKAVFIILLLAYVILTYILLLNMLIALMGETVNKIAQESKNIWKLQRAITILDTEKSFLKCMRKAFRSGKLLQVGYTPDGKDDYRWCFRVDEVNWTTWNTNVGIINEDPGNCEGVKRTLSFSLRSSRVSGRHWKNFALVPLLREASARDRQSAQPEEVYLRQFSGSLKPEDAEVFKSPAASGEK
#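 Cells expressing TRPV1 were dye-loaded with Fluo-8 and read kinetically: 10 s baseline, 3 min after compound (agonist portion), then 2 min after EC20 capsaicin (allosteric enhancer portion). Calcium-bound dye fluorescence at 480/520 nm.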
# ClpP mod: qHTS Assay for Activators of ClpP; 340,000 tested, 1.9% active; Potency, µM (titrated, usually from 57.5 µM), without a hit: at the highest dose activity change, negative = active; purified B. subtilis ClpP, FRET peptide cleavage, 20 min; ATP-dependent Clp protease proteolytic subunit (Bacillus subtilis (strain 168)), P80244; AID 651965, 2013; active = well fitted falling curve with a large enough effect; inconclusive = small, poorly fitted or top-dose-only effect; inactive = no such curve, though single readings can be large or run the other way; also: potency is read from the fitted curve at half-maximal effect; the source files actives as falling curves though it sought activators and does not explain the sign; nearly all actives have a fitted effect of over 65% in size; many hits overshoot -100%
# Target sequence (P80244 whole entry, looked up): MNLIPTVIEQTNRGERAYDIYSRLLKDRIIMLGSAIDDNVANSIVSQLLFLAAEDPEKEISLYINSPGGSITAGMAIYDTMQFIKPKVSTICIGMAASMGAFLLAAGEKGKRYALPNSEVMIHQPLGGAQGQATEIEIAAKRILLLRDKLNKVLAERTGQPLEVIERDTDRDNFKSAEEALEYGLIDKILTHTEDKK
#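 Buffer: 100 mM Tris/HCl pH8, 100 mM KCl, 0.05% low protease BSA, 2.5% glycerol, 0.01% Tween-20. ClpP 10 microg/mL final; 20 min RT; delta FRET normalized to ADEP and DMSO controls.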
# gsp ag: activates gsp, the McCune-Albright syndrome mutation. gsp mutant cells, cAMP HTRF, 30 min; control for the full effect not named in the record. Potency, µM (series often up to 76.9 µM), for the others: top-dose activation (cAMP increase), actives largely listed as activators. 340,000 tested, 0.13% active; active = well fitted activation curve with a large enough effect; inconclusive = small, poorly fitted or top-dose-only effect, or another doubt; inactive = no such curve, though single readings can be large or run the other way; cell line not stated here;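 also: phosphodiesterase inhibitor Ro 20-1724 added with compounds to block cAMP breakdown; potency is read from the fitted curve at half-maximal effect; nearly all actives have a fitted effect of over 60% in size; about a fifth of the inactives were tested at one dose only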
#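 Cells stably selected in G418 were plated at 2000/well, grown 16-24 hr, then given compounds in DMSO with the PDE inhibitor […] (300 uM solution added) for 30 min at 37C; cAMP was read by HTRF.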
# Menin MLL FP FL: menin-MLL binding inhibition, fluorescein peptide. Fluorescence polarization, fluorescein-MLL peptide displacement from menin. FP activity change, % at 61.4 µM. 290,000 tested, under 10 active. AID 1766; inconclusive = falling polarisation curve, or a change in total fluorescence; inactive = total fluorescence flat and polarisation flat or rising; no compound was filed as active; the % refers to the polarisation; negative = inhibition;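 also: % of control where 0% means no effect; inhibitors lower the polarisation; unlabelled MLL peptide was the positive control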
# The depositor's hits bear a star; u = inconclusive; x = not tested or not shown; [ ] = remark or other dose.
entry	SMILES	gsp antagonist	CtBP-E1A blk	Sfp PPTase inh	TRPV1 potentiator	ClpP mod	gsp ag	Menin MLL FP FL
1	Cc1cc(NC(=O)COC(=O)c2cc(S(=O)(=O)N(C)c3ccccc3)ccc2Cl)no1	-15%	x	14%	-2	-10%	4%	-3.8
2	Clc1ccccc1SCc1nc2ccccc2[nH]1	-6%	11	2%	-14	-2.2%	18%	-3.3
3	Cc1cccc(C)c1NC(=O)CSc1nc2ccccc2c(=O)[nH]1	13%	1	-7%	4	-7.2%	1%	3.0
4	CCOC(=O)c1c(/N=C/C2C(=O)CCCC2=O)sc(C)c1C	-13%	-7	-12%	-7	-2.0%	2%	14
5	COc1ccc(NC(=O)/C(=C/c2ccc3c(c2)OCO3)NC(C)=O)cc1	8%	11	16%	-8	1.7%	1%	1.2
6	O=C(Nc1ccc2c(c1)OCO2)NC1(C(F)(F)F)Oc2ccccc2O1	0%	0	-7%	-17	-1.9%	28%	1.9
7	COc1cc(C2SCC(=O)N2Cc2ccccc2)cc(OC)c1OC (stereo not given)	9%	x	17%	-4	-0.1%	-25%	-6.1
8	C[C@H]1CN([C@@H](C)CO)C(=O)c2cc(NC(=O)C3CCCCC3)ccc2O[C@H]1CN(C)S(=O)(=O)c1ccccc1	-4%	5	x	x	-10%	x	x
9	Fc1ccc(-c2cnc3n2CCCCC3)cc1	9%	-2	11%	-21	x	-25%	11
10	Cc1ccc(S(=O)(=O)N(Cc2ccccc2F)C(=O)N2CCN(C)CC2)cc1	-2%	-1	x	-4	0.4%	17%[15.4 µM]	x
11	Cc1ccc(-c2nc3ncccn3c2NC2CCCC2)o1	-9%	-2	-3%	-1	-4.2%	7%	5.1
12	Cc1nn(Cc2ccc(Cl)cc2)c2sc(C(=O)OCC(N)=O)cc12	u	-1	1%	-2	u	-12%	-1.5
13	O=C(/C=C/c1ccco1)NC(=S)NNC(=O)c1ccco1	-6%	9	-6%	-39	0.0%	-20%	4.2
14	Cc1nc2scc(C)n2c(=O)c1S(=O)(=O)N1CCN(c2ccc(F)cc2)CC1	0%	x	3%	-5	-2.8%	u	x
15	O=C1CSC(c2ccccn2)N1c1cccc(Cl)c1 (stereo not given)	14%	2	2%	0	1.5%	-7%	-1.6
16	O=C(NCc1ccccn1)c1ccc2c(=O)n(CCc3ccccc3)c(=O)[nH]c2c1	-33%	0	8%	0	-9.0%	30%	0.3
17	Cc1noc(C(=O)Nc2ccc(F)cc2F)c1Cl	6%	5	9%	3	x	-6%[15.4 µM]	3.6
18	CCOC(=O)C1CCN(CC(=O)c2c(C)n(C)c3ccc(OC)cc23)CC1	-1%	-14	11%	-4	-4.8%	0%	2.1
19	CCOc1ccc(OCCNC(=O)c2oc3ccccc3c2COC)cc1	1%	-7	x	1	-2.6%	-38%[inhibitor]	x
20	O=C(c1ccccn1)N1CCN(c2ccc(C(F)(F)F)cn2)CC1	-8%	3	9%	-25	u	-67%[inhibitor]	2.1
21	CSc1nc2ccccc2n1C(=O)NC1CCCCC1	15%	7	11%	15	-1.8%	-16%	-0.9
22	Cc1ccccc1NC(=O)CCN1CCN(C/C=C/c2ccccc2)CC1	12%	5	-1%	u	-0.4%	u	-3.2
23	COc1cccc(-n2nnc3c(=O)n(CC(=O)NC4CCCC4)cnc32)c1	1%	1	20%	-16	-2.6%	1%	-5.1
24	COc1cc2c(cc1OC)-c1cc(Nc3ccc(N(C)C)cc3)nc(=O)n1CC2	-14%	-69*	2%	-4	x	-2%[15.4 µM]	-2.0

# An excerpt from above, showing only Menin MLL FP FL, Sfp PPTase inh and CtBP-E1A blk:
item | Structure | Menin MLL FP FL | Sfp PPTase inh | CtBP-E1A blk
16 | O=C(NCc1ccccn1)c1ccc2c(=O)n(CCc3ccccc3)c(=O)[nH]c2c1 | 0.3 | 8% | 0
17 | Cc1noc(C(=O)Nc2ccc(F)cc2F)c1Cl | 3.6 | 9% | 5
18 | CCOC(=O)C1CCN(CC(=O)c2c(C)n(C)c3ccc(OC)cc23)CC1 | 2.1 | 11% | -14
19 | CCOc1ccc(OCCNC(=O)c2oc3ccccc3c2COC)cc1 | x | x | -7
20 | O=C(c1ccccn1)N1CCN(c2ccc(C(F)(F)F)cn2)CC1 | 2.1 | 9% | 3

# Next part:
entry	SMILES	gsp antagonist	CtBP-E1A blk	Sfp PPTase inh	TRPV1 potentiator	ClpP mod	gsp ag	Menin MLL FP FL
25	O=C(CNC(=O)/C(=C\c1ccc(Br)cc1)NC(=O)c1ccccc1)OCc1ccccc1	-12%	-3	23%	23	-14%	1%[15.4 µM]	8.6
26	O=C(C1CCCN(S(=O)(=O)c2ccccc2)C1)N1CCN(c2ncccn2)CC1 (stereo not given)	-16%	-2	12%	13	-25%	-35%[inhibitor]	-3.6
27	N#C/C(=C\c1ccco1)Sc1nc2ccccc2s1	-11%	11	u	-2	-2.1%	4%	u
28	c1ccc(C2Oc3ccccc3C3CC(c4cccs4)=NN32)cc1 (stereo not given)	0%	-2	-3%	-5	-13%	-13%	13
29	COC(=O)c1ccccc1NC(=O)N1CCN(C(=O)c2ccco2)CC1	-6%	-19	24%	27	22µM*	u	1.5
30	COc1ccc(-n2c(=S)[nH]c3cc(C(=O)Nc4cc(C(N)=O)ccc4OC)ccc3c2=O)c(OC)c1	1%	1	7%	1	0.2%	-14%[15.4 µM]	-6.8
31	CCOC(=O)c1c(NC(=O)COc2ncnc3ccccc23)sc(C)c1C	-3%	-1	u	-8	8.9%	-3%	0.6
32	COc1ccc(-c2noc(CCCCC(=O)N3CCN(c4cc(C)ccc4C)CC3)n2)cc1	u	-3	x	x	-3.1%	x	x
33	O=c1oc2ccccc2nc1/C=C(O)/C=C/c1ccc(F)cc1	u	-8	79µM*	28	0.7%	-10%	-0.7
34	CCn1c(SCc2nc3ccccc3s2)nnc1-c1ccccc1	-2%	5	19%	-9	-6.9%	u	-0.7
35	O=C(Oc1cccc2ccccc12)c1ccco1	-5%	10	-7%	0	1.4%	-18%	-3.9
36	COc1ccc(Nc2cc(C)nc3ccc(C)cc23)cc1	x	-9	x	x	-0.2%	-112%[inhibitor]	x
37	CCCn1c(N2CCN(Cc3ccc(Cl)cc3)CC2)nc2ccccc21	u	x	u	2	0.3%	-14%	0.6
38	Cc1ccc(N2CC(C(=O)N3CCc4ccccc43)CC2=O)cc1 (stereo not given)	-1%	22	18%	-21	-1.2%	-13%	-0.7
39	Cc1cc(SCC(=O)c2ccccc2)n2ncc(-c3ccccc3)c2n1	-27%	x	-98%	6	-7.5%	u	2.8
40	CS(=O)(=O)c1ccc(Cl)c(NC(=O)CSc2nc3ccccc3c(=O)n2CCCN2CCOCC2)c1	-12%	x	-5%	4	-1.1%	7%	-2.1
41	COc1ccc(CCn2c(-c3cccc([N+](=O)[O-])c3)nc3nc4ccccc4nc32)cc1	11%	3	x	x	-1.1%	u	x
42	c1ccn2c(Cc3nnc4ccccn34)nnc2c1	13%	-7	1%	-8	u	u	1.7
43	Cc1sc2ncn(CC(=O)N3CCN(c4ccccn4)CC3)c(=O)c2c1S(=O)(=O)N1CCC(C)CC1	2%	-17	-2%	3	x	-9%	-0.9
44	COc1cc(/C=C(/NC(=O)c2ccccc2)C(=O)Nc2ccccc2)c([N+](=O)[O-])cc1OC	-2%	-16	3%	25	2.0%	8%	1.7
45	CC(=O)N=c1cccc(NC(C)=O)n1O	6%	7	6%	-2	-0.5%	1%	4.6
46	COc1ccc(C(=O)N2CCN(C(C)=O)CC2)cc1S(=O)(=O)N1CCOCC1	4%	3	-8%	-5	x	9%[15.4 µM]	6.3
47	Cc1cc(-c2nn(-c3ccccc3F)cc2CN2CCC(O)CC2)c(C)s1	0%	-11	14%	-12	-2.3%	u	-3.4
48	CCOc1ccc(N(CC(=O)NCC2CCCO2)S(=O)(=O)c2ccc(SC)cc2)cc1 (stereo not given)	-1%	4	-28%	-16	-0.9%	-18%	1.2
49	O=c1c2ccccc2oc2ccc(NCCCN3CCOCC3)cc12	-7%	-18	-8%	-3	2.0%	x	u
50	Cc1cc([N+](=O)[O-])nn1CC(=O)N1CCc2ccccc2C1	2%	6	3%	-4	-1.7%	7%	5.7
51	O=C(NC1CCCCC1)c1cc(-c2cccs2)on1	-2%	-2	-11%	2	x	-4%[15.4 µM]	-6.3
52	Cc1ccc2sc(N(CCCN(C)C)C(=O)c3ccc(S(=O)(=O)N4CCOCC4)cc3)nc2c1C	1%	-4	x	1	-0.6%	-1%[15.4 µM]	x
53	C[n+]1cccc(C(=O)NNC(=O)C23CC4CC(CC(C4)C2)C3)c1	10%	-3	9%	-2	x	-16%[15.4 µM]	-0.3
54	O=C(CSc1cn(Cc2ccccc2)c2ccccc12)NCc1ccc(F)cc1	-8%	3	-4%	-8	2.1%	8%	-0.7
55	CC1CCCN(C(=O)C2CCN(CC3CC=CCC3)CC2)C1 (stereo not given)	2%	6	-4%	-19	-1.0%	-38%[inhibitor]	-2.6
56	COc1ccc(-c2csc(NC(=O)c3ccccc3F)n2)cc1	-25%	x	5%	22	-6.1%	u	1.4
57	Cc1cccc(Nc2nnc(SCC(=O)c3c(N)n(C4CC4)c(=O)[nH]c3=O)s2)c1C	-1%	x	x	22	1.5%	-20%	x
58	CCOc1cc(C2NC(=O)NC(c3ccccc3)=C2C(=O)c2ccccc2)c(Br)cc1OCC(=O)O (stereo not given)	2%	-7	25%	-7	x	u	3.8
59	CCOC(=O)N1CCN(C(=O)C2CCCCC2)CC1	13%	4	14%	5	-2.1%	2%	-1.0
60	COc1cccc(NC(=O)c2c([N+](=O)[O-])cnn2C)c1	7%	3	4%	6	x	-59%[inhibitor]	-2.2
61	COc1cccc(-c2cc(C(=O)N/N=C/c3cccc(OC)c3OC)c3ccccc3n2)c1	0%	-4	x	x	-0.6%	-15%[15.4 µM]	x

# Structures listed so far shown as hits in CtBP-E1A blk:
no. | mol | gsp antagonist | CtBP-E1A blk | Sfp PPTase inh | gsp ag | Menin MLL FP FL
24 | COc1cc2c(cc1OC)-c1cc(Nc3ccc(N(C)C)cc3)nc(=O)n1CC2 | -14% | -69* | 2% | -2%[15.4 µM] | -2.0

# Screening results as filed in PubChem.
